# TSHR agonist: agonists of human thyroid stimulating hormone receptor; P16473; HEK293-CNG-TSHR cells (CNG channel as cAMP sensor), membrane potential dye, cAMP; Potency, µM (highest dose often 57.1 µM), without a hit: at the top dose activation, hits mostly activators; 0.48% of 73,000 active; AID 926; active = well fitted activation curve of enough size with the parental cells flat; inconclusive = any curve in the parental cells; inactive = parental cells flat and receptor cells flat or falling; note: potency is the fitted concentration of half-maximal effect; % of control where 0% means no effect; weak receptor curves with flat parental cells got no call and are not listed
# Target sequence (P16473 whole entry, looked up): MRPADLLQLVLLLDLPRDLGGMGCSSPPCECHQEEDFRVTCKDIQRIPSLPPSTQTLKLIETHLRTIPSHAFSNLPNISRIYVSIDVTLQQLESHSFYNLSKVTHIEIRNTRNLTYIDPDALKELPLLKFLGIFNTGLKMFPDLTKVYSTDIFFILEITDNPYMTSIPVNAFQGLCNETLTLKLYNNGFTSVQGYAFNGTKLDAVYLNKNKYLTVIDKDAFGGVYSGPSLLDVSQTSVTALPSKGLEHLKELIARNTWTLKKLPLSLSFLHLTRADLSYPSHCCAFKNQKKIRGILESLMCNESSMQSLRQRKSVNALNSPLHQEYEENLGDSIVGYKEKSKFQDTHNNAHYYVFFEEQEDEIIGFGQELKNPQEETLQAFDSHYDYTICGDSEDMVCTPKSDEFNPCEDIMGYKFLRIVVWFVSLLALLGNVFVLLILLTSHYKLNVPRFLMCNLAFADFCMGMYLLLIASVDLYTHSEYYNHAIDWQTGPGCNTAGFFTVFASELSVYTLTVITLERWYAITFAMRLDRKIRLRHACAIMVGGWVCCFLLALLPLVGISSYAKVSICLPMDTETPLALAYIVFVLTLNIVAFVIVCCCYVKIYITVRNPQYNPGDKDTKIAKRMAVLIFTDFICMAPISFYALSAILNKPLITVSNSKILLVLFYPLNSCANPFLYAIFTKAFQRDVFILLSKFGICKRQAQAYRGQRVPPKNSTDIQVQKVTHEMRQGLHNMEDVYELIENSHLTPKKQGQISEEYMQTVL
#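 cAMP rise detected as CNG-channel membrane depolarization by fluorescent dye (emission 590 nm), 30 min after compound, following 60 min dye loading containing 100 uM RO 20-1724 at room temperature. Cells: TSHR/CNG HEK 293, with parental CNG HEK 293 as control.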
# A488 fluor: compound fluoresces in the A488 spectral region; compound autofluorescence, A488 spectral region, dye equivalency; hits give high values; max dye equivalency, M; 0.1% of 59,000 active; AID 591; active = above 10 nM dye equivalent; inconclusive = 1 to 10 nM; inactive = 1 nM or less; about half of its hits are not listed in these tables;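 note: highest value over a series up to 38 µM; compound alone in buffer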
#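 Intrinsic compound fluorescence is measured in 100 mM Tris buffer at pH 8.0 following 15 min incubation at room temperature. Intensities at 480 nm excitation/540 nm emission are calibrated to an on-plate A488 concentration series, giving dye-equivalent concentrations.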
# AID923: qHTS Assay for Allosteric/Competitive Inhibitors of Caspase-1: Spectroscopic Profiling in AFC Spectral Region. AID 923, 2007. Potency, µM (highest dose often 57.5 µM), for inactives: top-dose fluorescence increase, usual class: activators. 1.1% of 75,000 active. compound fluorescence, AFC spectral region (405/520 nm); almost no hit is shown here; active = well fitted activation curve with a large enough effect; inconclusive = small, poorly fitted or top-dose-only effect;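 note: potency is the fitted concentration of half-maximal effect; 0% is about no effect; scaled to a free AFC standard on each plate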
#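 Compound autofluorescence profiled at 405 nm ex/520 nm em during kinetic caspase 1 run (50 nM enzyme, 5 uM Ac-WEHD-AFC, HEPES pH 7.5, 10 mM DTT). Titration up to 57 uM; baseline from regression intercept, normalized to AFC standard curve.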
# A647 fluor: A647 region autofluorescence; Compound fluorescence, A647 channel (570/671 nm), Tris buffer; max dye-equivalent concentration, M; 59,000 tested, under 10 active; active means above 1 µM dye equivalent; inconclusive means 0.1 to 1 µM; inactive means 0.1 µM or less;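 note: values scaled relative to a standard on each plate; highest value over a series up to 38 µM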
#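 Fluorescence read (570 nm ex, 671 nm em) after 15 min RT incubation of compounds in 100 mM Tris buffer, pH 8.0; values expressed as dye-equivalent concentration against a six-point A647 standard series on each plate.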
# Resorufin autofl: resorufin region autofluorescence; Compound fluorescence, resorufin region 547/598 nm, buffer; hits give high values; max dye-equivalent concentration, M; 0.04% of 59,000 active; AID 588; active = above 10 nM dye equivalent; inconclusive = 1 to 10 nM; inactive = 1 nM or less; a few of its hits are not listed in these tables; note: highest value over a series up to 38 µM
#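 Read-out: intrinsic compound fluorescence at ex 547/em 598 nm after 15 min at RT in pH 8.0 Tris (100 mM). Values expressed as resorufin-equivalent concentration from per-plate standard series.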
# Active calls of the source: *; i = inactive; ? = inconclusive; / = not tested or not shown; [ ] = remark or other dose. Some of the compounds tested (hit frequency here may not be typical).
SMILES,TSHR agonist,A488 fluor,AID923,A647 fluor,Resorufin autofl
CCOC(=O)CNC(=O)C(CO)NC(=O)OCc1ccccc1 (stereo not drawn),22%,i,-0.1%,4.1e-08,i
Cc1ccc(OCC(=O)Nc2nnn(C)n2)c(C)c1,-2%,i,0.8%,4.1e-08,i
COC(=O)C1=C(N)Oc2cc(N(C)C)ccc2C1c1ccccc1OC (stereo not drawn),29%,i,8.7%,1.3e-09,i
O=C(CNC(=O)c1ccccc1F)NC1CC1,1%[11.4 µM],/,0.2%,/,/
O=C(Cc1c(C(=O)O)[nH]c2ccccc12)NC1CCN(Cc2ccccc2)CC1,3%,i,-0.3%,3.3e-09,i
CCOc1ccc(-c2nnc(-c3cccs3)o2)cc1OCC,14%,i,0.5%,2e-08,i
CCOC(=O)N1CC=C2C(C#N)=C(N)C(C#N)(C#N)[C@H](c3ccsc3)[C@H]2C1,10%,i,9.7%,8e-09,i
CSc1nc(-c2ccco2)nn1S(=O)(=O)c1ccc(C)cc1,-2%,/,2.5%,/,/
COc1cccc(C2CC(c3cccc(C)c3)n3ncnc3N2)c1 (stereo not drawn),?,/,-1.6%,/,/
O=C(c1ccco1)N1CCN(C(=O)c2cccc3c2C(=O)N(C2CCCCC2)C3)CC1,5%,i,-0.6%,2.8e-08,i
Cn1c(=O)c2c(nc(N3CCCCC3)n2CCSc2nc3ccccc3s2)n(C)c1=O,?,i,-1.2%,1e-09,i
CCn1c(N)c(C(=O)NCc2ccc3c(c2)OCO3)sc1=S,1%,i,-0.5%,1e-09,i
C=CCn1c(SCC(=O)Nc2nc3ccccc3s2)nnc1-c1ccccc1O,14%,i,-1.5%,4e-08,i
O=C(c1cccs1)N1CCN(C2CCN(Cc3ccccc3)CC2)CC1,5%,i,0.2%,3.7e-08,i
CC(=O)C1=C(O)C(=O)N(CCC(=O)O)C1c1cccc(F)c1 (stereo not drawn),2%,i,0.9%,4.8e-08,i
O=C(NCC1CCCO1)c1cccc(N2CCCC2=O)c1 (stereo not drawn),1%,i,-2.0%,5.4e-09,i
COc1ccc(N=C2C(=O)Nc3ccccc32)cc1,-2%,i,-0.6%,1.9e-08,i
O=C(O)CSCCn1cccn1,0%,i,0.1%,5e-09,i
CCOC(=O)c1ccccc1NC(=O)Nc1ccc(OC)c(OC)c1,-3%,i,-0.8%,1e-09,i
Fc1ccc(Br)cc1/C=N/n1cnnc1,0%,/,0.1%,/,/

# Part of the list above, with values under each structure.
# Values run as follows: TSHR agonist | A488 fluor | AID923 | A647 fluor | Resorufin autofl
COc1ccc(N=C2C(=O)Nc3ccccc32)cc1
    -2% | i | -0.6% | 1.9e-08 | i
O=C(NCC1CCCO1)c1cccc(N2CCCC2=O)c1 (stereo not drawn)
    1% | i | -2.0% | 5.4e-09 | i
CC(=O)C1=C(O)C(=O)N(CCC(=O)O)C1c1cccc(F)c1 (stereo not drawn)
    2% | i | 0.9% | 4.8e-08 | i

# (cont.)
SMILES,TSHR agonist,A488 fluor,AID923,A647 fluor,Resorufin autofl
c1ccc(CCn2nnnc2C(c2cccnc2)N2CCN(c3nc4ccccc4s3)CC2)cc1 (stereo not drawn),24%,i,2.0%,1e-09,i
O=C(CSc1nnc(-c2cccs2)n1Cc1ccco1)Nc1ccc2c(c1)OCO2,?,i,-0.4%,2.7e-08,i
CC(C)NC(=O)CN(c1cccc(Br)c1)S(C)(=O)=O,1%,i,-0.5%,1.6e-08,i
CC(C)(NC(=O)N1CCCC1)c1cccc(C(C)(C)NC(=O)N2CCCC2)c1,19%,/,-0.5%,/,/
O=C(Nc1ccc2c(c1)OCO2)c1ccc(S(=O)(=O)NCC2CCCO2)cc1 (stereo not drawn),-15%,i,-1.5%,4.4e-09,i
Cn1c(/C=C/N2CCOCC2)c(C(=O)c2ccc(Br)cc2)c(=O)n(C)c1=O,0%,i,-0.4%,3.3e-08,i
Cc1ccc(C)n1-c1ccc(-c2nnco2)cc1,2%,i,-1.1%,3.5e-08,i
CCOC(=O)c1c(-c2ccccc2)[nH]c2ccc(O)cc12,-9%,i,0.7%,4.6e-09,i
CCOc1ccc(NC(=O)Nc2ccc(N(C)C(C)=O)cc2)cc1,-8%,i,-1.0%,7.6e-08,i
COC(=O)CC(=O)Cc1nc(N)nc(Nc2ccc(C)c(C)c2)n1,/,i,/,4.9e-09,i
CCOC(=O)c1[nH]c2ccc(OC)cc2c1NC(C)=O,-2%,i,0.4%,2.1e-08,i
COC(=O)C(C)NC(=O)C(C)NC(=O)OCc1ccccc1 (stereo not drawn),-2%[11.4 µM],i,-1.4%,1e-09,i
COc1ccc(-c2cc(C(=O)Nc3c(C)nn(Cc4ccccc4)c3C)no2)cc1,8%,i,1.1%,1.9e-08,i
Cc1occc1-c1nnc(SCC(=O)c2ccc(Cl)cc2)n1CC1CCCO1 (stereo not drawn),20%,i,1.0%,8e-09,i
O=c1c(CCc2ccccc2)nc2cncnc2n1C1CC1,-6%,i,0.6%,1.4e-08,i
COC(=O)c1ccc(C)c(NC(=O)C2COc3ccccc3O2)c1 (stereo not drawn),26%,i,-0.5%,6.4e-09,i
CCC(=O)N1CCc2cc(Br)cc(S(=O)(=O)NCC3CCCO3)c21 (stereo not drawn),2%[11.4 µM],i,0.0%,1e-09,i
O=C(CC1(O)C(=O)N(CN2CCOCC2)c2ccccc21)c1ccccc1 (stereo not drawn),0%,/,-0.9%,/,/
Cc1ccc(S(=O)(=O)N(C)CC(=O)NC2CCCC2)cc1,-1%,i,-0.7%,1e-09,i
Cc1cc(C)c2c3c(sc2n1)C1(CCSCC1)C(C#N)=C(N)O3,11%,i,-0.8%,1.7e-09,i
CC1CCCN(C(=O)Cn2nnc(-c3cccnc3)n2)C1 (stereo not drawn),0%,i,4.2%,1.3e-09,i
O=C(NC(C(=O)c1ccccc1)n1cnccc1=O)c1ccccc1 (stereo not drawn),2%,/,-1.9%,/,/
Cn1nc(-c2ccc(C(=O)N3CCN(c4ccccc4)CC3)cc2)c2ccccc2c1=O,18%,i,0.3%,1e-09,i
Cc1ccc(-c2noc(C3CCN(S(=O)(=O)c4ccc5c(c4)OCCO5)CC3)n2)o1,?,i,8.6%,4.5e-09,i
O=c1c2c(nc3nc(COc4ccccc4)[nH]n13)CCC2,/,i,-0.6%,1e-09,i
Brc1cc2[nH]cnc2c2ccccc12,11%,i,1.4%,3.8e-08,i
c1ccc(-c2nc(NCc3ccco3)c3ccccc3n2)nc1,9%,i,0.7%,3.7e-08,i
COCCNC(=O)Cn1cnc2sc(C)c(S(=O)(=O)N3CCC(C)CC3)c2c1=O,-2%,i,-0.6%,6.6e-09,i
Cc1ccc(-n2c(SCC(N)=O)nc3c([nH]c4ccccc43)c2=O)cc1,0%,/,0.8%,/,/
COc1ccc(NC(=O)N[C@@H](CCSC)C(=O)O)cc1Cl,-4%,i,0.3%,3.1e-08,i
Cc1cc(C(=O)CSc2nnnn2-c2ccc(O)cc2)c(C)n1Cc1ccc2c(c1)OCO2,?,i,0.1%,1.6e-08,i
c1ccc2c(c1)OCC(c1nn3c(Cn4nnc5ccccc54)nnc3s1)O2 (stereo not drawn),30%,i,0.2%,3e-08,i
CNC(=O)CSc1nnc(-c2ccco2)n1-c1ccccc1OC,-1%,i,-3.2%,3.2e-09,i
Cc1csc(N(C)C(=O)CSc2nnc(COc3ccccc3C)o2)n1,20%,i,-0.4%,3.2e-09,i
c1ccc(CCN2CCN=C2Cc2ccccc2)cc1,5%[11.4 µM],i,-1.5%[11.5 µM],1e-09,i
O=C1CC(N2CCC(c3nc4ccccc4[nH]3)CC2)C(=O)N1Cc1ccccc1 (stereo not drawn),/,i,-0.4%,1.8e-09,i
CC(=O)N1CCN=C1SCc1c(F)cccc1Cl,-3%,/,2.3%,/,/
O=C(NCCN1CCc2ccccc2C1)C1CC(=O)N(C2CCCC2)C1 (stereo not drawn),-4%,i,2.8%,1e-09,i
Cc1nnc(NC(=O)C2CCCN(S(=O)(=O)Cc3ccccc3)C2)s1 (stereo not drawn),3%,i,-1.3%,1.9e-08,i
CN(CCCNC(=O)c1ccc(N2CCCC2=O)cc1)c1ccccc1,?,i,2.5%,1e-09,i
CCOC(=O)C1CCN(C(=O)COc2cccc(C)c2)CC1,5%,i,3.3%,4.9e-08,i
COCCNC(=O)c1cc2c(=O)n3cccc(C)c3nc2n(Cc2ccncc2)c1=N,11%,i,1.2%,1.6e-08,i
CCN1C(=O)c2ccc(-c3nc4ccccc4c(=O)o3)cc2C1=O,-5%,/,2.6%,/,/
CCOC(=O)N1CCC(NC(=O)c2cc(C(=O)Nc3ccc(F)cc3F)ccc2CO)CC1,26%,/,-1.2%,/,/
CCCOc1cc(C)c(S(=O)(=O)n2ccc(C)n2)cc1C,/,i,-0.8%,2.9e-08,i
CCOC(=O)C1C(c2ccc(C)o2)NC(=O)NC1(O)C(F)(F)F (stereo not drawn),3%,i,0.9%,2.5e-09,i
CS(=O)(=O)N1CCC(C(=O)Nc2ccc(Br)cc2F)CC1,-3%,i,-2.4%,1.7e-08,i
C=CCNC(=O)c1ccc(C(=O)c2ccccc2)cc1,0%,i,-1.4%,2.3e-08,i
Cc1cccc(N2CCN(C(=O)CCNS(=O)(=O)c3ccc4c(c3)CCC(=O)N4)CC2)c1C,28%,i,-0.4%,2.9e-08,i
CCOC(=O)c1sc(NC(=O)COC(=O)Cn2cnc3ccccc32)c(C(=O)OCC)c1C,4%,i,-1.0%,3.8e-09,i

# 6 compounds already listed, sorted by number of heavy atoms, lowest first:
SMILES,TSHR agonist,A488 fluor,AID923,A647 fluor,Resorufin autofl
CC1CCCN(C(=O)Cn2nnc(-c3cccnc3)n2)C1 (stereo not drawn),0%,i,4.2%,1.3e-09,i
COC(=O)C(C)NC(=O)C(C)NC(=O)OCc1ccccc1 (stereo not drawn),-2%[11.4 µM],i,-1.4%,1e-09,i
CCN1C(=O)c2ccc(-c3nc4ccccc4c(=O)o3)cc2C1=O,-5%,/,2.6%,/,/
Cc1nnc(NC(=O)C2CCCN(S(=O)(=O)Cc3ccccc3)C2)s1 (stereo not drawn),3%,i,-1.3%,1.9e-08,i
CC(C)(NC(=O)N1CCCC1)c1cccc(C(C)(C)NC(=O)N2CCCC2)c1,19%,/,-0.5%,/,/
Cc1cccc(N2CCN(C(=O)CCNS(=O)(=O)c3ccc4c(c3)CCC(=O)N4)CC2)c1C,28%,i,-0.4%,2.9e-08,i

# The list continues.
SMILES,TSHR agonist,A488 fluor,AID923,A647 fluor,Resorufin autofl
CCCC(=O)Nc1nn(CCC)c2nc3ccccc3cc12,/,i,/,3.6e-08,i
C=CCOc1cccc(C2C(C(=O)c3ccc(C)o3)=C(O)C(=O)N2CCN(C)C)c1 (stereo not drawn),-2%,i,0.7%,6.2e-09,i
Cc1nc(SCC(=O)Nc2ccc(F)cc2)c2oc3ccccc3c2n1,?,i,0.1%,4.4e-09,i
Cc1noc(C)c1-c1cncnc1N(C)Cc1ccco1,?,i,0.9%,1e-09,i
Cc1nc2ccccc2n1CC(=O)N1CC(=O)Nc2ccccc21,-2%,i,-1.1%,5.1e-09,i
COc1ccc(NC(=O)c2cccc(NC(=O)C3C4CC5OC(=O)C3C5C4)c2)c(OC)c1 (stereo not drawn),4%,i,0.0%,1e-09,i
Clc1ccc(Cc2nn3c(-c4ccncc4)nnc3s2)cc1,?,i,1.8%,4e-09,i
CCn1c(=O)n(CC)c2cc(S(=O)(=O)N3CCOCC3)ccc21,1%,i,-1.0%,1e-09,i
CN1CCc2nc(N)nc(-c3nc(N)nc4c3CN(C)CC4)c2C1,4%[11.4 µM],i,-1.6%[11.5 µM],3e-09,i
CCc1ccccc1,0%,/,1.6%,/,/
Cn1c(=O)c2c(nc(NCc3ccco3)n2CCc2ccccc2)n(C)c1=O,/,i,/,1.1e-08,i
CC1=CC(C)(C)Nc2cc(C)c(C)cc21,-2%,i,6.5%,1.6e-08,i
COc1ccccc1OCC(=O)N1CCN(c2ccccc2OC)CC1,?,/,1.1%,/,/

# Source: PubChem
